# GALR2 ag – agonists of human galanin receptor 2 (GALR2); GALR2-expressing cells, agonist activation read-out; activation, %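 (tested at 5 µM)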; 140,000 compounds, 0.48% hits; AID 803;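 active = above mean plus 3 SD of all compounds, about 5% in these data, not always enough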;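 note: 0% = vehicle buffer wells and 100% = reference agonist at full effect; tested in CHO reporter cells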
# Target sequence (O43603 whole entry, looked up): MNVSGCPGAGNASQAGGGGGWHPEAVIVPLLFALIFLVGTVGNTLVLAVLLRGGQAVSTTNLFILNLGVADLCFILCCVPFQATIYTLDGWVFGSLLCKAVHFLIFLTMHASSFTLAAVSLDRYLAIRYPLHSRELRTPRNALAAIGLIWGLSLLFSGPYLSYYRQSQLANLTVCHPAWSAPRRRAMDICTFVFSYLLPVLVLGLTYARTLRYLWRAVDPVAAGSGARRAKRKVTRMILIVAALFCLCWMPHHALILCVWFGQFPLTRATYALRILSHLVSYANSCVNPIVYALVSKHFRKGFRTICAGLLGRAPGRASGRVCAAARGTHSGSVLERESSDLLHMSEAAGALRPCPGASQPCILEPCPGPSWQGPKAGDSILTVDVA
# HSV augment – increases HSV replication in cells. HSV replication augmentation in cells, fold increase. maximum fold increase. 220,000 compounds, 0.005% hits. AID 1956;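 active = peak rise of 1.5-fold or more in the series; tested in PC3 cells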;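 note: first round at 10 µM; read as green reporter fluorescence; hits show the peak of a series up to 25 µM; 1 = signal of infected wells without compound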
# INS promoter inh – TRM-6 insulin promoter activity inhibition. 130,000 compounds, 0.9% hits. inhibition, % at 2 µM. TRM-6 cells (human fetal islet line), insulin promoter-eGFP reporter, imaging; reporter expression induced with tamoxifen;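 active = inhibition above the mean plus 3 SD, with well images judged a real hit on visual review, cut at about 60% in these data, passing the limit was not always enough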
# PKD1 kinase inh – blocks activity of human protein kinase D1; Q15139; PKD1 kinase fluorescence polarization assay; inhibition, %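 (about 10 µM by stock and volumes)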; 200,000 compounds, 0.056% hits; AID 797;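 active = inhibition of 50% or more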;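 note: controls were vehicle for no effect and a reference inhibitor for full effect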
# RGS16-Gao – regulators of human RGS16-Galphao interaction; O15492+P09471; bead-based flow cytometry RGS16-Galphao binding, fluorescence; actives lie on both sides; binding response (% of control), % at 10 µM; 220,000 compounds, 0.38% hits;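 active = below 25% or above 175%, edge rows of some plates excepted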;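 note: Galphao activated by GDP with aluminum fluoride before binding; 100% = wells without compound and 0% = beads without RGS; some results beyond the cut were filed as inactive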
# Target sequence (O15492 whole entry, looked up): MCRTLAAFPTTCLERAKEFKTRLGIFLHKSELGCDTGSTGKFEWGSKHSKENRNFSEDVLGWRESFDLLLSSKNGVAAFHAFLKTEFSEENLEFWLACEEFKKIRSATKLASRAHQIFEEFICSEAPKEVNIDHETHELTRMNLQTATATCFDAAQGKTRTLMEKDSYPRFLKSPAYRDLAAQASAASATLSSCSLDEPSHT
# Target sequence (P09471 whole entry, looked up): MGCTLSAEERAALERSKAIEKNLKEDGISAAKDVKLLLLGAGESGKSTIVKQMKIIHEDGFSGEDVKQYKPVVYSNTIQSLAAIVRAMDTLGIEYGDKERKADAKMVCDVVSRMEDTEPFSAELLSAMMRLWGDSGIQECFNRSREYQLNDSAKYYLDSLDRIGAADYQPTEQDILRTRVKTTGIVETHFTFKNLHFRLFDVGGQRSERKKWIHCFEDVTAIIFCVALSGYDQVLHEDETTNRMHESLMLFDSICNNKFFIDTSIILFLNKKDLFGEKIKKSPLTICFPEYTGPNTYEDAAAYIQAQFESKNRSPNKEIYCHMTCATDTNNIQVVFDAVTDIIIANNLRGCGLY
# INS promoter inh cell count – recorded beside INS promoter inh, whose call it bears; normalized cell count, %; measured here: cell count, toxicity; reference of the scale not given here;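 cells exposed to compound for 48 h; stained nuclei by imaging scaled within each plate; lower means fewer cells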
# HSV augment primary fold – recorded beside HSV augment, whose call it bears; fold increase; compound at 10 µM; measured here: primary screen fold increase 10 uM; tested in PC3 cells;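 GFP signal in the first replicate; 1 = infected wells without compound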
# * marks the source's active call; other numbers are inactive results; i = inactive; · = no result given; [ ] = remark or other dose. Hits appear at their usual frequency (roughly 1.1% active in at least one column).
# The first 5 entries, ahead of the listing:
Molecule,GALR2 ag,HSV augment,HSV augment primary fold,INS promoter inh,INS promoter inh cell count,PKD1 kinase inh,RGS16-Gao
O=C(NCCC1=CCCCC1)C(=O)NCC(c1ccco1)N1CCN(c2ccccc2F)CC1 (centres undefined),-1.9,i,0.74,-7,116,-1,84
c1ccc2c(N3CCCCCC3)nc(-c3ccncc3)nc2c1,2.3,i,0.9,-26,65,-1,96
CN(C)S(=O)(=O)c1cccc(-c2nn(-c3ccccc3)cc2/C=C(\C#N)c2nc3ccccc3[nH]2)c1,7.3*,i,0.8,-407,16,-8,114
COc1ccc(C(c2oc(CO)cc(=O)c2O)c2oc(CO)cc(=O)c2O)cc1OC,·,i,0.91,·,·,-3,99
N#C/C=C(/c1ccc(F)cc1)N1CCOCC1,·,i,1.1,24,94,-4,103

# Results, from the first entry:
Molecule,GALR2 ag,HSV augment,HSV augment primary fold,INS promoter inh,INS promoter inh cell count,PKD1 kinase inh,RGS16-Gao
O=C(NCCC1=CCCCC1)C(=O)NCC(c1ccco1)N1CCN(c2ccccc2F)CC1 (centres undefined),-1.9,i,0.74,-7,116,-1,84
c1ccc2c(N3CCCCCC3)nc(-c3ccncc3)nc2c1,2.3,i,0.9,-26,65,-1,96
CN(C)S(=O)(=O)c1cccc(-c2nn(-c3ccccc3)cc2/C=C(\C#N)c2nc3ccccc3[nH]2)c1,7.3*,i,0.8,-407,16,-8,114
COc1ccc(C(c2oc(CO)cc(=O)c2O)c2oc(CO)cc(=O)c2O)cc1OC,·,i,0.91,·,·,-3,99
N#C/C=C(/c1ccc(F)cc1)N1CCOCC1,·,i,1.1,24,94,-4,103
CCOC(=O)c1nnc(-c2ccc(C)cc2)nc1Sc1cccc(Cl)c1,-0.6,·,·,·,·,6,101
CC(=O)OC[C@H]1O[C@@H](Sc2cccc3cccnc23)[C@H](OC(C)=O)[C@@H](OC(C)=O)[C@@H]1OC(C)=O,0.1,i,0.96,-43,83,-4,110
Cc1ccc(C(=O)NCCCc2ccccc2)c(C)c1,·,i,0.99,·,·,-3,101
Cc1oc(-c2cccc(Cl)c2)nc1CN1CCC(C(=O)NCC2CCCO2)CC1 (centres undefined),-1.7,i,0.81,8,80,9,102
COC(=O)c1ccc(NC(=O)CN2CCN(c3ccccc3)CC2)cc1,-0.4,i,1.2,36,111,-5,104
CN1CCN(C(=O)/C(=C/c2cccs2)NC(=O)c2ccco2)CC1,·,i,1.1,·,·,-6,108
CC1(C)Cc2c(sc3ncnc(N)c23)CO1,-2.6,i,0.94,83*,29*,-17,93

# Remaining list, next part
Molecule,GALR2 ag,HSV augment,HSV augment primary fold,INS promoter inh,INS promoter inh cell count,PKD1 kinase inh,RGS16-Gao
O=C(CSc1n[nH]c(C2CCCC2)n1)NC1CCCC1,-4.3,i,1,·,·,5,105
C=CCNC1=C(Cl)C(=O)c2ccccc2C1=O,-1.0,i,0.9,24,65,-4,100
Cc1sc2ncnc(NCC(c3ccco3)N3CCCC3)c2c1C (centres undefined),-1.6,i,0.88,18,68,0,102
COc1cccc(-c2ccc(SCc3ccccn3)nn2)c1,·,i,0.92,0,65,4,116
COCCn1c(C)cc(/C=C2/SC(=O)N(C(C)C(=O)OC)C2=O)c1C (centres undefined),·,i,1.1,·,·,·,225*[activator]
O=C(NCCCN1CCN(c2cccc(Cl)c2)CC1)c1ccc(N2CCCC2=O)cc1,-3.1,i,1,4,130,-11,101
Cc1ccc(/C=N/NC(=O)CCCOc2ccc(Cl)cc2Cl)cc1,0.1,i,0.67,3,109,-3,103
Cc1cc(C)n(-c2ccc(C(=O)OCC(=O)c3ccc(Br)s3)cc2)n1,-1.4,i,0.91,0,84,-4,121
COc1ccc(C)cc1N/C(N)=N/c1nc(C)cc(C)n1,·,i,0.94,33,110,-8,99
CN(C)c1ccc(-c2nc3ccccc3c(=O)[nH]2)cc1,·,i,0.87,·,·,·,103
COc1ccc(O)c(C(=O)CC(=O)c2ccccc2)c1,0.5,i,0.74,·,·,-6,99
Cc1nc(N2CCC(C)CC2)c2nnn(Cc3ccccc3)c2n1,-1.8,i,0.86,-221,32,9,38

# (further entries)
Molecule,GALR2 ag,HSV augment,HSV augment primary fold,INS promoter inh,INS promoter inh cell count,PKD1 kinase inh,RGS16-Gao
COc1ccc(C2=NOC3(CC(=O)N(c4ccc(F)cc4)C3=O)C2)cc1 (centres undefined),·,i,1.2,·,·,·,97
CCOc1ccccc1C(=O)N[C@H](C(=O)OCc1cc(=O)oc2cc(C)ccc12)C(C)C,-1.0,i,0.94,-6,88,-7,99
N#Cc1nc(Cc2cccc3ccccc23)oc1NCc1ccco1,-1.2,i,0.82,46,121,7,101
COc1cc(C2Oc3ccccc3C=C2[N+](=O)[O-])cc(OC)c1OC (centres undefined),·,i,0.95,·,·,·,99
O=c1oc2ccccc2c(NC(c2ccccc2)c2ccccc2)c1[N+](=O)[O-],-0.6,i,1,-12,144,-1,101
CC(C)(C)[C@H]1C=C(C(N)=O)O[C@@H](OCc2ccc(CO)cc2)C1,·,i,0.81,·,·,-5,97
Cc1cc2cc(CNC(=O)CCC(=O)O)ccc2[nH]1,-2.7,i,0.9,·,·,11,100
CCOc1ccccc1/C=N/NC(=O)CNC(=O)COc1ccccc1,·,i,1,·,·,0,103
CCOC(=O)/C(=C/c1ccc(Cl)cc1)NC(=O)c1ccco1,-0.8,i,1,-9,85,-17,105
Cc1ccc(/C=C/C(=O)NC(=S)N2CCN(C)CC2)cc1,0.7,i,1,30,128,-13,100
CN(C)CC(=O)Nc1cc(C(F)(F)F)ccc1Cl,-0.9,i,0.91,43,91,-2,102
CCCOC(=O)c1c(NC(=O)C2CCCO2)sc(C(=O)OC)c1C (centres undefined),-1.2,i,0.98,i,41,-3,55

# (list continues)
Molecule,GALR2 ag,HSV augment,HSV augment primary fold,INS promoter inh,INS promoter inh cell count,PKD1 kinase inh,RGS16-Gao
COc1cc(C(=O)NCc2cn3ccccc3n2)cc(OC)c1OC,-0.7,i,0.84,48,137,5,96
COc1ccc(/C=N/NC(=O)C(=O)NCc2cccnc2)cc1,·,i,1,-14,96,7,75
Cc1ccc(-c2nn(-c3ccccc3)cc2C2CC(c3ccccc3)=NN2C(=O)CCC(=O)O)cc1 (centres undefined),·,i,0.95,·,·,·,104
Cn1nnc(NC(=S)NC(=O)c2ccc(-c3ccc(Br)cc3)o2)n1,·,i,1.1,·,·,-6,100
CC(=C/c1ccccc1)/C=N/NC(=O)c1ccc2nc[nH]c2c1,-1.3,i,0.92,30,135,12,106
O=C1C2C3C=CC(CC3)C2C(=O)N1c1ccccc1[N+](=O)[O-] (centres undefined),·,i,0.99,7,37,-3,105
CCOC(=O)c1oc2ccc(S(=O)(=O)N3CCOCC3)cc2c1C,-1.9,i,0.9,·,·,-1,68
CC1CC(C)CN(C(=O)CSc2nnc(-c3ccc(F)cc3)o2)C1 (centres undefined),-1.0,i,1.1,·,·,-13,80
O=C(CNS(=O)(=O)c1c(Cl)cccc1Cl)OCC(=O)c1ccc[nH]1,·,i,1.1,·,·,·,104
O=C(NCc1ccc2c(c1)OCO2)C1CC(=O)N(C2CCCCCC2)C1 (centres undefined),-1.9,i,1,·,·,-10,96
CCOC(=O)N1CCC(N2CCCC(CO)(Cc3cccc(Cl)c3)C2)CC1 (centres undefined),·,i,1.1,·,·,-1,108
CCCC(=O)Nc1sc(C)c(C)c1C#N,·,i,1,·,·,-7,112

# Following part:
Molecule,GALR2 ag,HSV augment,HSV augment primary fold,INS promoter inh,INS promoter inh cell count,PKD1 kinase inh,RGS16-Gao
O=[N+]([O-])c1cc(S(=O)(=O)N2CCCC2)ccc1O,0.4,i,0.84,0,103,-5,107
COc1ccc2c(Cl)c(-c3nnc4n3CCCCC4)sc2c1,-1.7,i,0.9,29,67,-9,98
O=C1C(=Cc2cccn2-c2ccccc2)C(=O)c2ccccc21,-0.7,i,1,-36,124,8,98
Cc1ccc(S(=O)(=O)N2CCOCC2)cc1NC(=O)COc1ncnc2ccccc12,-0.6,i,0.96,10,119,-8,107
CCCCc1c(C)nc2ccc(C(=O)OCC)cc2c1Cl,-0.5,i,0.95,·,·,1,100
Cc1cc(C(=O)OCC(=O)Nc2cc(C)on2)c2ccccc2n1,-0.9,i,0.74,·,·,-4,56
OCCCNc1c2c(nc3cc(-c4ccc(Cl)cc4)nn13)CCC2,·,i,0.93,·,·,-4,101
CC1CC(C)CN(c2ncnc3c2cnn3Cc2ccc(Cl)cc2)C1 (centres undefined),-0.1,i,0.87,0,65,-2,104
Cc1noc(NS(=O)(=O)c2ccc(NC(=O)CSc3ncccn3)cc2)c1C,-1.2,i,0.91,·,·,0,108
CCCCc1ccc(NC(=S)NN2CCOCC2)cc1,-0.6,i,1.1,·,·,3,101
O=C(NCCN1CCN(C(=O)c2cc3ccccc3oc2=O)CC1)c1cc2ccccc2oc1=O,-2.6,i,1,35,94,-3,103
O=C(/C=C/c1ccco1)NCc1ccc(F)cc1,·,i,1,·,·,-2,102

# (more compounds)
Molecule,GALR2 ag,HSV augment,HSV augment primary fold,INS promoter inh,INS promoter inh cell count,PKD1 kinase inh,RGS16-Gao
O=C(O)C1Cc2[nH]cnc2C(c2ccc(F)cc2)N1 (centres undefined),·,i,0.94,·,·,-4,100
CC(=O)NNc1nc2ccccc2s1,-1.0,i,0.99,-5,43,-5,103
Cc1csc(NC(=O)CCC(=O)c2cccs2)n1,·,i,1,-122,71,2,101
COc1ccc2[nH]c(CN3CCC(CO)(CCOc4ccccc4)CC3)c(C)c2c1,·,i,0.85,·,·,-6,98
CCc1cc(C)cc(OCCNC(=O)c2cncc(Br)c2)c1,-1.3,i,1.1,-24,131,-1,2
COc1ccc(C2(CNS(=O)(=O)c3ccccc3)CCOCC2)cc1,·,i,0.99,·,·,-4,98
CCOc1ccc(C(=O)Cc2ccc3oc(C(=O)O)cc3c2)c(O)c1,-3.3,i,0.84,-10,80,-4,104
O=C(/C=C/c1ccc(Br)cc1)NCc1cccs1,0.7,i,1.1,23,101,-11,100
CN1CCN(C(=O)c2sc(=S)n(-c3ccccc3)c2N)CC1,-0.3,i,1.1,41,128,-6,50
CCOC(=O)C1CCN(C(=S)Nc2ccccc2)CC1,·,i,0.96,-173,91,7,110
COc1ccc(CS(=O)/C(Cl)=C(/Cl)C(=O)Nc2ccc(OC)nc2)cc1 (centres undefined),·,i,0.59,i,11,5,95
Cc1oc(C(C)(C)C)cc1C(N)=O,·,i,0.89,·,·,·,105

# Full records, quoted from the list. Order of screens: GALR2 ag	HSV augment	HSV augment primary fold	INS promoter inh	INS promoter inh cell count	PKD1 kinase inh	RGS16-Gao
# `Cc1csc(NC(=O)CCC(=O)c2cccs2)n1` is listed with ·	i	1	-122	71	2	101
# `CCOc1ccc(C(=O)Cc2ccc3oc(C(=O)O)cc3c2)c(O)c1` is listed with -3.3	i	0.84	-10	80	-4	104
# `CC(=O)NNc1nc2ccccc2s1` is listed with -1.0	i	0.99	-5	43	-5	103

# (more compounds)
Molecule,GALR2 ag,HSV augment,HSV augment primary fold,INS promoter inh,INS promoter inh cell count,PKD1 kinase inh,RGS16-Gao
CSc1nc2ccc(NC(=O)c3ccc(=O)n(C)n3)cc2s1,·,i,1.3,-6,112,3,101
COc1ccc(-n2cc(CNCCCn3ccnc3)c(-c3ccccc3Cl)n2)cc1,·,i,0.82,·,·,11,93
C=CCNC(=O)CN1CCC(NC(=O)c2ccco2)CC1,·,i,0.92,·,·,-3,100
O=C1c2ccccc2C(=O)N1CCc1nc(-c2cccnc2)no1,-2.4,i,0.72,48,81,3,104
CCc1nnc(NC(=O)c2ccc(OCc3c(C)noc3C)c(OC)c2)s1,·,i,0.87,·,·,5,99
Cc1cc(Br)ccc1OCCNCc1ccccc1,·,i,0.95,·,·,-4,99
Nc1ccc(Oc2c(Cl)cccc2Cl)nc1,·,i,1,·,·,·,96
COc1ccc2[nH]c(=O)c(C(=O)O)cc2c1,·,i,0.99,·,·,-2,101
CCOc1cc(S(=O)(=O)n2ccnc2)ccc1Cl,·,i,0.91,12,101,12,102
Cc1c(C(=O)Cc2ccccc2)n(C)c2ccccc12,·,i,0.99,·,·,-1,98
CC(=O)c1ccc(N(C)C)cc1,-2.6,i,0.79,-14,84,2,97
CCOc1ccc(CCNC(=O)C2CCN(C(=O)N(C)C)CC2)cc1OCC,-4.2,i,1,·,·,-7,101
COc1ccc(Cl)cc1NC(=O)C(=O)NC1CCCCCC1,-1.2,i,0.86,21,101,2,101
COc1c(Cl)cc(Br)c(OC)c1C(=O)NC(=O)Nc1nc(C)cc(C)n1,·,i,0.84,·,·,·,95
Cc1ccc(/C=N/NC(=O)c2ccc3nc[nH]c3c2)o1,·,i,1,·,·,·,92

# Bioassay records as filed in PubChem.
